NPR1 antag: human Npr1 receptor antagonism. P16066. AID 1347048. Potency, µM (top dose mostly 46.3 µM), without a hit: at the highest dose activity change, negative = inhibition, actives largely listed as inhibitors. hit rate 1.6% among 76,000. HEK293 hNpr1 GloSensor cGMP, ANP-stimulated luminescence; active = well fitted inhibition curve with a large enough effect; inconclusive = small, poorly fitted or top-dose-only effect; inactive = no such curve, though single readings can be large or run the other way;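 note: nearly all actives have a fitted effect of over 60% in size; nearly all hits also lower the signal before the agonist is added; a reference antagonist and vehicle were the controls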
Target sequence (P16066 whole entry, looked up): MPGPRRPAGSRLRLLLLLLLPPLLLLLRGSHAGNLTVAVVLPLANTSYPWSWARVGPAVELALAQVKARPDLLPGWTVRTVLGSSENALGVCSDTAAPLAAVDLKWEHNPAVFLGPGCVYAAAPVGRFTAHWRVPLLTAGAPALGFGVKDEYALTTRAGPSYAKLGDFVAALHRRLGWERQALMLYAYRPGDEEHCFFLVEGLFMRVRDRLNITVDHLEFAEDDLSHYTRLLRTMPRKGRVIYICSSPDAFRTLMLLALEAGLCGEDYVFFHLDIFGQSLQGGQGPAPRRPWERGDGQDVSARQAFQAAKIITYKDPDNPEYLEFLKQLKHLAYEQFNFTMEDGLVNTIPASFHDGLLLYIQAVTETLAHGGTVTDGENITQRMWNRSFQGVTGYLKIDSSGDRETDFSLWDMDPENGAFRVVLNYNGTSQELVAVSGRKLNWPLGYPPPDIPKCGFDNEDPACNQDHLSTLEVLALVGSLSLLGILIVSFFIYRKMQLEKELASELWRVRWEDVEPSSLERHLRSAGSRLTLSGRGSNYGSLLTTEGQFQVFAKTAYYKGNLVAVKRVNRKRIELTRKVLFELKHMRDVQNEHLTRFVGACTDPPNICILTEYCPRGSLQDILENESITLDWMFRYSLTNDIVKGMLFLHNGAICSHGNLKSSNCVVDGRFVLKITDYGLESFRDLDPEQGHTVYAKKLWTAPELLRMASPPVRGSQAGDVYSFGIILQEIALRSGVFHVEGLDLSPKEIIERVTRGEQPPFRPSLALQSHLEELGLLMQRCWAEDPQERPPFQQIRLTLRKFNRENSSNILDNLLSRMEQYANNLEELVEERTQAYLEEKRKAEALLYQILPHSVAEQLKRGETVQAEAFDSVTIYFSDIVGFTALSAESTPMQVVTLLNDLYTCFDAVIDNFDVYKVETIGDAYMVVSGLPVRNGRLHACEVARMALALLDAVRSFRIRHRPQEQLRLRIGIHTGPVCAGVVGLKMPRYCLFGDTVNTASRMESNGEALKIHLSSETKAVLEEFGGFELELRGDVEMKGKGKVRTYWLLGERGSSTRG
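HEK293 cells stably expressing human Npr1 and cGMP GloSensor pGS-40F, loaded 2 h with 2% GloSensor reagent, given compound 30 min at room temperature. Luminescence read before and 20 min after 0.1 nM hNppA.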
Numbers without * were called inactive; ? = inconclusive; & = joins results of further samples; [ ] = another dose, or the depositor's remark. % is set by controls: 0 for no effect and ±100 for the full control effect; potency is the fitted concentration of half-maximal effect.

Start of the listing, in advance:
SMILES | NPR1 antag
O=C(N[C@H](C1CCNCC1)C1CC(O)C1)c1ccccc1C(F)(F)F (stereo partly drawn) | -2.3%
COc1cc(F)ccc1-c1cc(-c2ccc(=O)[nH]c2)c2cncn2c1 | -2.7%[70.6 µM]

This part in full, from the first entry:
SMILES | NPR1 antag
O=C(N[C@H](C1CCNCC1)C1CC(O)C1)c1ccccc1C(F)(F)F (stereo partly drawn) | -2.3%
COc1cc(F)ccc1-c1cc(-c2ccc(=O)[nH]c2)c2cncn2c1 | -2.7%[70.6 µM]
COc1ccc(C)cc1NC(=O)Cn1c(-c2ccc(F)cc2)nc(C)cc1=O | -12.4%
CCCCc1ccc(NC(=O)CN2C(=O)NC3(CCS(=O)(=O)CC3)C2=O)cc1 | -16.9%
CCN(CC)C(=O)[C@@H]1CCC[C@@H](NC(=O)c2cnccn2)CN(C)C(=O)C1 | 0.0%[70.6 µM]
CN1C(=O)c2cccn2CC1C(=O)Nc1ccc(F)cc1F (stereo not drawn) | -5.4%
NS(=O)(=O)c1ccc(F)c(C(=O)NCc2nc(C3CCCCC3)no2)c1 | -4.2%
O=C(NCc1ccccn1)C1CCN(CC2(O)CNCCOC2)CC1 (stereo not drawn) | 7.7%
O=C(c1[nH]nc2c1COc1ccccc1-2)N1CCC(Cc2nncn2CC2CC2)CC1 | -0.1%
OC[C@@H]1CNC[C@H]1C1CCN(Cc2ccc(Cl)c(F)c2)CC1 | 4.8%
CCCc1noc(-c2ccn3c(CNC(=O)c4ccccc4OCC)nnc3c2)n1 | 9.3%
O=C(c1cnc2c(c1)CCCC2)N1CCCn2nc(CO)cc2C1 | 2.4%
Cc1ccc(C(=O)N2CCCCCNC(=O)[C@@H]3CCC[C@@H]32)cn1 | -1.2%
O=C(NCCc1nc(Cc2ccccc2)no1)C1CNCCO1 (stereo not drawn) | 4.7%
COc1cccc(CC(=O)N2C[C@@H](Oc3cccnc3)C[C@H]2C(=O)N2CCCC2)c1 | 1.9%
Cc1ccc(-c2nnc(C3CN(C(=O)c4cnccn4)CC34CCOCC4)o2)cc1 (stereo not drawn) | 4.9%
Cc1ccc(C2=NC3(CCN(C(=O)c4ccc(C)s4)CC3)ON2)cc1 | -8.5%
O=C(N[C@H]1CO[C@H]2[C@@H]1OC[C@@H]2n1cc(-c2ccccn2)nn1)c1ccc(C(F)(F)F)cc1 | -10.9%
COc1cccc(CN2CCCC(C(=O)NCc3ccncc3)CCNC(=O)CC2)c1 (stereo not drawn) | 5.8%
COc1ccc(-c2nc(C3CN(C(=O)NCc4ccccc4)C3)no2)cc1 | -19.0%
COCC(=O)N[C@@H]1CCC[C@@H](C(=O)N(C)Cc2cccnc2)CC(=O)N(C)C1 | 2.9%[70.6 µM]
CCn1cc(S(=O)(=O)N2CCOc3ccc(CN4CCCCCC4)cc3C2)cn1 | -6.8%
CCCCNC(=O)c1cccc(-c2cc(N3CCN(C)CC3)nc(N)n2)c1 | ?
COCCNC(=O)C1c2ccccc2C(=O)N(c2ccccc2)C12CCCCC2 (stereo not drawn) | -7.5%
CC(C)CN1C(=O)c2cccn2CC1C(=O)NCCCOC(C)C (stereo not drawn) | 2.6%
O=C(NCCc1ccccc1)N1CCC(N2CC3CC(C2)[C@H]2CCCC(=O)N2C3)CC1 (stereo partly drawn) | 3.3%
Cc1ccc(CN2C(=O)NC3(CCCN(C(=O)c4ccc(F)c(Cl)c4)C3)C2=O)cc1 (stereo not drawn) | -3.7%
O=C(NC1Cc2ccccc2C1)c1ccccc1C1CCNC1 (stereo not drawn) | 4.2%
CCc1noc(CC2CCOC3(CCN(S(=O)(=O)c4ccc(Cl)cc4)CC3)C2)n1 (stereo not drawn) | ?
CN(C)C[C@@H]1CN(S(C)(=O)=O)C[C@H]1NC(=O)c1ccncc1 | 5.6%
CN1c2cc(C(=O)N3CCC(C(N)=O)CC3)ccc2C(=O)N2CCCCC21 (stereo not drawn) | 2.4%
Cc1noc(-c2cn(C3CCN(C(=O)Cc4ccsc4)C3)nn2)n1 (stereo not drawn) | -9.5%
CC(=O)Nc1ccc2c(c1)nc1n2[C@@H](CNCc2ccncc2F)COC1 | 6.7%[70.6 µM]
CC(C)c1ccc(CN2CCCC(O)(CN3CCSCC3)C2=O)cc1 (stereo not drawn) | -23.2%
Cc1nn(-c2ccccc2)c(Oc2ccccc2F)c1CCC(=O)NCc1ccco1 | ?
COc1ccccc1Cn1c(=O)[nH]c2cccnc21 | 14.0%[70.6 µM]
COc1cccc(C(=O)N2CCC(c3nn(C)c(=O)[nH]3)CC2)c1 | 0.1%[70.6 µM]
CCCCCCNC(=O)Cc1csc2nc(C)c(-c3cc(C)n(-c4ccccc4OC)n3)c(=O)n12 | 2.5%
O=C(NC1CCCCC1)C1CCN(c2cn[nH]c(=O)c2)C1 (stereo not drawn) | 4.4%
O=C(COc1ccccc1)N1CC2CC(C1)[C@H]1CCCC(=O)N1C2 (stereo partly drawn) | 1.7%
O=C1NCCCCCCN(C(=O)COc2ccc(F)cc2)[C@H]2CCCC[C@@H]12 | 5.7%
CCC1(N2CCN(C(=O)c3cc(F)ccc3Cl)CC2)CCN(C(=O)NC)C1 (stereo not drawn) | -9.3%
Cc1ccc(S(=O)(=O)N[C@H]2CO[C@H]3[C@@H]2OC[C@@H]3Nc2nccc(C(C)(C)C)n2)cc1 | 3.55µM*
COc1ccc(Cn2c(C3CCN(C(=O)c4ccc(F)c(F)c4)CC3)n[nH]c2=O)cc1 | -6.8%
Cc1ccccc1C(=O)N1CCC2(CC1)N=C(c1cccc(Br)c1)NO2 | ?
COc1ccc(Cl)cc1NC(=O)CCC1CCCN(C(=O)CCCn2cncn2)C1 (stereo not drawn) | -0.5%
COc1ccc(OCc2nc(C(=O)N3CCCC(C(C)(C)O)C3)co2)cc1 (stereo not drawn) | 1.2%
CCOC(=O)c1nccn1Cc1nc(-c2sccc2C)oc1C | ?
COC1CCOC2(CCN(C(=O)NCc3ccc(F)cc3)CC2)C1 (stereo not drawn) | 1.3%
Cc1ccccc1-c1cnc2[nH]cc(CC(=O)NCCN3CCOCC3)c2c1 | -18.9%[70.6 µM]
CCN(CC)C(=O)[C@@H]1CCC[C@@H](NC(=O)c2cccnc2)CN(C)C(=O)C1 | 1.2%[70.6 µM]
Cc1noc(-c2ccc(OC3CN(C(=O)c4cc(F)ccc4F)C3)cc2)n1 | -17.1%
CC(C)N1C(=O)C2(CCCC2)C1C(=O)NCCCN1CCc2ccccc2C1 (stereo not drawn) | 1.9%
O=C(c1cccnc1OC1CCN(Cc2ccccn2)C1)N1CCCCC1 (stereo not drawn) | 3.5%
COc1ccc(-c2cc(N3CCCC(NC(=O)c4ccoc4)C3)n[nH]2)cc1 (stereo not drawn) | -7.7%
N#Cc1cccc(C(=O)N2CCc3c(n(Cc4ccccc4)n(-c4ccccc4)c3=O)C2)c1 | -1.4%[70.6 µM]
Cc1cn2nnc(C(=O)N3CCC(C(=O)Nc4cccc(F)c4)CC3)c2c(=O)[nH]1 | 21.3%
CCn1ncc(N2CCC(NC(=O)c3ccccc3)CC2)cc1=O | 4.4%
Cc1[nH]c2ccc(C(=O)N[C@H]3CCOC[C@H]3C3CCOCC3)cc2c1C | -3.0%
CC1=C[C@@H](CC#N)[C@H](C(C)C)C[C@H]1CC(=O)N1CCN(C)CC1 | -0.5%[70.6 µM]

Part of the list above, as labelled records:
Cc1ccc(S(=O)(=O)N[C@H]2CO[C@H]3[C@@H]2OC[C@@H]3Nc2nccc(C(C)(C)C)n2)cc1
- NPR1 antag: 3.55µM*
COc1ccc(Cn2c(C3CCN(C(=O)c4ccc(F)c(F)c4)CC3)n[nH]c2=O)cc1
- NPR1 antag: -6.8%
Cc1ccccc1C(=O)N1CCC2(CC1)N=C(c1cccc(Br)c1)NO2
- NPR1 antag: ?
COc1ccc(Cl)cc1NC(=O)CCC1CCCN(C(=O)CCCn2cncn2)C1 (stereo not drawn)
- NPR1 antag: -0.5%

2 records picked at random from the list so far:
SMILES | NPR1 antag
Cc1ccc(-c2nnc(C3CN(C(=O)c4cnccn4)CC34CCOCC4)o2)cc1 (stereo not drawn) | 4.9%
COc1ccc(C)cc1NC(=O)Cn1c(-c2ccc(F)cc2)nc(C)cc1=O | -12.4%

Next compounds follow.
SMILES | NPR1 antag
COCCCNC(=O)N1CCCCCCN(C)C(=O)CC1 | 1.5%
COCCC1(NS(C)(=O)=O)CCN(C(=O)c2ccoc2)CC1 | -1.1%
Cc1ccc(C(=O)N2CCC3(CC2)Nc2ccccc2NC3=O)cc1O | -20.7%
CC1CCC2(CC1)NC(=O)N(CC(=O)NC(C)c1ccccc1)C2=O (stereo not drawn) | 0.0%
CC(C)Cc1nc2ccc(NC(=O)CC[C@H]3NC(=O)c4ccccc4NC3=O)cc2[nH]1 | 9.8%
Cc1ccc(C2Cn3nnc(C(=O)N4CCC(C(=O)Nc5ccc(F)c(F)c5)CC4)c3CO2)cc1 (stereo not drawn) | 0.0%
Cn1nnnc1C1CCCN(C(=O)CC2CCCC2)C1 (stereo not drawn) | 0.9%
CCOc1ccc(C(=O)NC2CCN(c3ccc(C)c(C)c3)C2=O)cc1 (stereo not drawn) | -13.9%
CCCNC(=O)N1CCOC[C@H](Oc2ccc(C(F)(F)F)cn2)C1 | -3.4%[70.6 µM]
COc1cc(=O)n2c(c1C(=O)Nc1cc(C)ccc1F)CCCC2 | -5.1%
COc1ccc(Cl)cc1C(=O)N1CCC(Cc2nc(-c3cnccn3)no2)CC1 | -1.9%
O=C1CC(c2ccccc2)N(C(=O)CNC(=O)c2[nH]nc3c2CCc2ccccc2-3)CCCCCCN1 (stereo not drawn) | -19.3%
CC(=O)Nc1ccc(CN2CCC3(CC2)CNc2ccccc2[S+](=O)([O-])N3)cc1 | 2.1%
Cn1cccc1CN1CCn2c(nnc2-c2cccnc2)C1 | 6.4%&-13.2%[70.6 µM]
CN(C)c1nc(CN2CC(C)(Cc3ccc4c(c3)OCO4)CCC2=O)cs1 (stereo not drawn) | -3.2%
CN(Cc1ccccc1)C(=O)C[C@@H]1CCNC[C@@H]1Cc1cc(CSc2ccccc2)on1 | 1.1%
CN(CC1(C)CCOCC1)C(=O)c1ccnn1C | -3.5%
O=C(NC1CCCCC1)N1CCC2(CC1)CC(N1CCN(c3ccccn3)CC1)CCO2 (stereo not drawn) | -13.4%
Cc1cccc(CC(=O)N2C[C@@H](COc3ccccc3)[C@H](C(N)=O)C2)c1 | -0.9%
Cn1nccc1C(=O)N1CCc2ccc(NC(=O)C3(c4ccccc4)CC3)cc2C1 | -26.5%
Cc1cnccc1N1CCCN(C(=O)C2CCOc3ccccc3C2)CC1 (stereo not drawn) | -2.6%
CN1CCCN(C(=O)C2CCOC2)c2ccccc21 (stereo not drawn) | 0.2%
Cc1ccc(NC(=O)N2CC(c3nnc(-c4ccncc4)o3)C3(CCOCC3)C2)cc1C (stereo not drawn) | -6.7%
CN(C)CCN1CC[C@H]2CN(S(=O)(=O)c3ccccc3)CC[C@H]2CC1=O | 6.2%[70.6 µM]
COc1cc(=O)n2c(c1C(=O)Nc1ccc(Br)cc1)CCCC2 | 4.8%
COc1ccc(Cl)cc1NC(=O)[C@@H]1COCC(=O)N1Cc1ccc(OC)c(OC)c1 | 1.5%
O=C(c1ccncc1)N1CCC(C2CCN(Cc3cccc(F)c3F)CC2)C1 (stereo not drawn) | -10.1%
COCCNC(=O)c1nc(-c2ccccc2OC)c2cnccn12 | 0.9%[70.6 µM]
CC(C)N(C)C(=O)Cn1ncc(N(C)CCc2ccccc2)cc1=O | -0.1%
COc1ccc(CC(=O)NC2CCN(c3cc(-c4ccc(F)cc4)[nH]n3)C2)cc1OC (stereo not drawn) | 12.6µM*
CCc1[nH]nc(C(=O)N2CCC3(CC2)C(=O)NCCN3C)c1C | 7.4%
COc1ccc(N2CC(C(=O)N(C)CCc3noc(C)n3)CC2=O)cc1Cl (stereo not drawn) | 0.3%
CC(C)CNC(=O)C(NC(=O)c1ccccc1)C1CCN(C(=O)CC(C)C)CC1 (stereo not drawn) | 5.0%
Cc1ccc(NC(=O)CN2C(=O)NC3(CCC(C)CC3)C2=O)cc1F (stereo not drawn) | -4.6%
COc1cccc(CNC(=O)C2CN(Cc3ccccc3)C(=O)N2)c1 (stereo not drawn) | 18.4%[70.6 µM]
COc1ccc(NC(=O)c2cc3c(N4CCSCC4)nc(C)cn3n2)cc1F | -6.8%
c1cncc(-c2ccnc3nc(C4CCC4)nn23)c1 | 1.6%
O=C1COCCN1c1cc(-c2cnc3[nH]ccc3c2)cn2cncc12 | 1.8%[70.6 µM]
CC(C)c1noc(-c2cn(C3CCN(C(=O)c4ccc(C(C)(C)C)cc4)C3)nn2)n1 (stereo not drawn) | ?
c1ccc(-c2nnc([C@H]3CCN(Cc4ccco4)C3)o2)cc1 | -2.2%[70.6 µM]
O=C1CCN(C(=O)c2ccsc2)CCCC(C(=O)N2CCN(c3ccccn3)CC2)CCN1 (stereo not drawn) | 4.3%
O=C1NC2(CCN([S+](=O)([O-])c3cccc(C(F)(F)F)c3)C2)Oc2ccccc21 (stereo not drawn) | -20.3%
Cc1ccc(-c2noc([C@@H]3Cc4nc[nH]c4CN3Cc3ccc(N(C)C)cc3)n2)cc1 | ?
COc1ccc(C2Cn3nnc(-c4nc(-c5ccc(F)c(Br)c5)no4)c3CO2)cc1 (stereo not drawn) | 3.1%
O=C(C1CC1)N1CCn2c(nn(-c3ccncc3)c2=O)C1 | 15.7%[70.6 µM]
COc1ccccc1-c1cn2c(n1)CO[C@@H](CNCc1cccnc1)C2 | 0.7%[70.6 µM]
O=C(c1ccc[nH]1)N1CCCC(n2cc(-c3nc(C4CC4)no3)nn2)C1 (stereo not drawn) | 0.9%

Compound activity from PubChem.

An excerpt; count on the stated rates, not on these rows.
